# Calb biofilm kill = mixture kills Candida albicans biofilm cells; 120,000 compounds, 0.02% hits; inhibition, % at 7.6 µM; C. albicans biofilm persisters + clotrimazole, fluorescence viability; primary screen in compound mixtures of four per well; AID 1242;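 active means inhibition above 30.3% in the primary screen of four-compound pools, then above 30% when the compound was retested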;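 further: compounds exposed to preformed 24 h biofilms for 48 h; the number belongs to the whole pool; some results filed as inactive read as strong as hits; inactives centre near 12; 0% = biofilm with clotrimazole alone and 100% = kill control; retested singly at about 60 µM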
#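 Test system: C. albicans CAF4-2 wild-type biofilms; buffer or medium: RPMI/MOPS medium, pH 7.0; schedule: 24 h biofilm formation, then 48 h compound exposure, 37 °C; detection: Alamar Blue fluorescence; measure: percent inhibition of biofilm viability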
# * hit, by the source's call.
# Sample of the layout, 4 compounds:
structure | Calb biofilm kill
O=C(NC1CCCCC1)NC12CC3CC(CC(C3)C1)C2 | 11.8
O=C(NNC(=O)c1cccc(O)c1)Nc1ccc([N+](=O)[O-])cc1 | 0.2
C=CCn1c(SCc2nc3scc(-c4ccccc4)c3c(=O)[nH]2)nnc1-c1ccccc1F | 5.8
COc1ccc(/C=N/NC(=O)CN(CCc2ccccc2)S(=O)(=O)c2ccc(NC(C)=O)cc2)cc1OC | 17.7

# The list itself, from the first entry:
structure | Calb biofilm kill
O=C(NC1CCCCC1)NC12CC3CC(CC(C3)C1)C2 | 11.8
O=C(NNC(=O)c1cccc(O)c1)Nc1ccc([N+](=O)[O-])cc1 | 0.2
C=CCn1c(SCc2nc3scc(-c4ccccc4)c3c(=O)[nH]2)nnc1-c1ccccc1F | 5.8
COc1ccc(/C=N/NC(=O)CN(CCc2ccccc2)S(=O)(=O)c2ccc(NC(C)=O)cc2)cc1OC | 17.7
COC(=O)NCC(c1ccco1)N1CCN(c2ccc(OC)cc2)CC1 (centres undefined) | 7.2
COCCN(C(=S)Nc1ccccc1OC)C1CCN(C(C)C)CC1 | 28.7
Cc1ccc(-c2ccc(/C=C(\C#N)C(N)=S)o2)c([N+](=O)[O-])c1 | 12.5
O=C(CCNC(=O)c1ccc(Cl)cc1)Nc1ccc(F)cc1F | 3.3
COc1ccc(Nc2ccc(S(=O)(=O)N3CCCCC3)cc2[N+](=O)[O-])cc1OC | 15.8
CN(C(=O)/C=C/c1ccco1)c1ccccc1C(=O)O | -3.6
CCC1=NN2C(=N)/C(=C\c3cccn3-c3ccc(OC)cc3)C(=O)N=C2S1 | 2.1
COC(=O)c1sc(-c2ccc(C(C)(C)C)cc2)cc1NC(=O)CSCC(=O)O | 9.8
COc1ccc2cc(C(=O)C3CCCN(C(=O)c4cc(=O)n(C)c(=O)n4C)C3)ccc2c1 (centres undefined) | 12.6
Cc1cc(NS(=O)(=O)c2ccc(NC(=S)NC(=O)c3cccnc3)cc2)no1 | 12.9
CC(=O)c1cccc(NC(=O)NC2CC3CCCC(C2)N3CC(C)C)c1 (centres undefined) | 15.0
CC(C)N(C(=S)Nc1cccnc1)c1ccccc1 | 6.8
Cc1nn(C)c(C)c1CS(=O)(=O)c1ccccc1 | 15.2
O=C(NCc1cccnc1)C(=O)NCC1OCCCN1S(=O)(=O)c1ccc(Cl)cc1 (centres undefined) | 17.9
CC(C)Oc1c(Br)cc(Br)cc1/C=N/NC(N)=S | 10.1
Cc1n[nH]c(=O)n1-c1ccc(OCc2ccccc2)cc1 | -18.0
Cc1ccc(NC(=O)c2c(C)nn(-c3ccccc3)c2Cl)cc1 | 9.3
C/C(=N/OC(=O)c1ccc(C)cc1)C(=O)c1ccc(Br)cc1 | 14.1
Cc1cc(SCC(=O)N/N=C/c2cccnc2)nc2c(C)cccc12 | -9.8
O=C(CN1C(=O)C2C3CC(C(Br)C3Br)C2C1=O)Nc1ccc(C(=O)O)cc1 (centres undefined) | 21.1
COc1ccc([N+](=O)[O-])cc1NC(=O)CC1SC(=Nc2cccc(C)c2C)N(/N=C/c2cccc(OC)c2OC)C1=O (centres undefined) | 9.7
CC(=O)c1c(C)[nH]c(C(=O)Nc2ccc(S(=O)(=O)N(C)C)cc2)c1C | 9.3
Cc1cc(/C=C2\SC(=O)N(CC(=O)Nc3ccccc3F)C2=O)c(C)n1C | 17.0
COc1ccccc1NC(=O)C1=C(C)NC(=O)NC1c1ccco1 (centres undefined) | 15.9
Cc1cc(-c2csc(NC(=O)c3ccccc3C(F)(F)F)n2)c(C)n1Cc1ccccc1 | 2.1
O=C1CCC([N+](=O)[O-])C(c2ccc(Cl)c([N+](=O)[O-])c2)N1 (centres undefined) | 8.1
O=C(c1ccccc1Sc1cccc2ccccc12)N1CCOCC1 | 15.3
COc1cccc(CC2(CO)CCCN(Cc3cc(F)ccc3-n3cccn3)C2)c1 (centres undefined) | 11.8
Cc1ccc(/C=N/NC(=O)C2=NNC(c3ccccc3)(c3ccccc3)C2)c(O)c1 | 3.7
Cn1c(CSCc2ccc(Cl)cc2Cl)n[nH]c1=S | -3.4
Cn1ccnc1SCc1nc2c(cnn2-c2ccccc2)c(=O)[nH]1 | 18.2
O=C(NC(=O)c1ccccc1O)c1ccc2c(c1)CCO2 | 30.4
Cc1ccc(C(=O)N2N=C(CC(C)C)CC2(O)C(F)(F)F)o1 (centres undefined) | 5.7
Cc1ccc(NC(=O)CC2SC(=Nc3ccc(O)cc3)NC2=O)cc1 (centres undefined) | 10.1
CCN(CC)CCNS(=O)(=O)c1ccc(C(=O)NN)cc1 | 18.8
Cn1cc(/C=C2\SC(=O)NC2=S)c2ccccc21 | 17.2
COCC(C)NC(=S)Nc1ccccc1[N+](=O)[O-] (centres undefined) | 9.6
CCOC(=O)CNC(=O)CSc1nc(-c2ccccc2)ns1 | 6.1
CNC(=O)CSCc1c(F)cccc1Cl | 6.8
CCOc1ccccc1C(=O)N[C@H](C(=O)Nc1cc(S(=O)(=O)N(C)C)ccc1OC)C(C)C | 2.6
CCc1c(O)nc(SCC(=O)Nc2nc3ccccc3s2)n(C2CCCCC2)c1=O | 11.6
Cc1csc(NC(=O)CCCC(=O)O)c1-c1nc2ccccc2s1 | 21.2
COc1ccc(C(=O)NCC(=O)N/N=C/c2ccc([N+](=O)[O-])o2)cc1OC | 21.9
CNC(=S)N1N=C(c2ccc(C)cc2)CC1c1cc(OC)ccc1OC (centres undefined) | -11.1
CCO[C@H]1OC(C(=O)NCc2ccccc2)=C[C@@H](c2ccccc2)[C@@H]1CCCO | 12.4
C/C(=N/NC(=O)CNc1ccc(Cl)cc1C)c1ccc(C)cc1 | 16.7
CC(=O)Nc1cccc(/C(C)=N/NC(=O)c2cc(-c3ccncc3)nc3ccccc23)c1 | 17.6
CC(C)Oc1ccc(C2C(C#N)=C(N)Oc3c2oc(CO)cc3=O)cc1 (centres undefined) | 12.0
c1ccc2[nH]c(-c3cscn3)nc2c1 | 18.6
CNC(=O)/C(=C\c1ccc2c(c1)OCO2)NC(=O)c1ccc(Br)cc1 | 14.4
OCCNC(=S)c1ccccc1 | 15.0
O=C(Nc1cccc([N+](=O)[O-])c1)c1[nH]ncc1Cl | 8.6
CC12CNCC(C)(CN(C3(O)C(=O)Nc4ccc(Br)cc43)C1)C2=O (centres undefined) | -1.2
COC(=O)c1sccc1OCc1cccc(OC)c1 | 12.9
COc1cc(NC(=O)c2ccc3c(c2)OCCO3)ccc1NC(=O)c1cccs1 | 19.5
NC(=O)NCc1ccccc1F | 9.4

# Other results.
structure | Calb biofilm kill
CCn1c(SCC(=O)Nc2cccc(C)n2)nc2c1c(=O)n(C)c(=O)n2C | 21.7
CC(=O)Nc1ccc2nc(NC(=O)COc3ccccc3Cl)sc2c1 | 10.2
Nc1c(C(=O)O)sc2nc(-c3ccccc3)cc(-c3ccc(F)cc3)c12 | 16.6
O=C(Cc1ccc([N+](=O)[O-])cc1)Nc1nnc(C2CC2)s1 | 3.0
CCC(C)c1ccc(NC(=O)COC(=O)c2nc3nccc(C)n3n2)cc1 (centres undefined) | 15.9
CCOC(=O)c1ccc(NC(=O)c2nc[nH]c2C(=O)N(CC)CC)cc1 | 15.2
O=C(O)CNC(=S)N(Cc1ccccc1)Cc1cccnc1 | 10.2
O=C(CN1CCc2ccccc2C1)NCC(=O)Nc1ccc(F)cc1 | 12.1
COc1ccc(Cl)cc1NC(=O)Nc1ccccc1SC | -2.0
O=C(CSc1nc(O)cc(=O)[nH]1)N1c2ccccc2CCc2ccccc21 | 14.1
COc1ccc(-c2nnc(-c3cc4ccccc4oc3=O)o2)cc1 | 6.8
C/C(=N\NC(=O)c1cc(C)nc2ccccc12)c1ccc([N+](=O)[O-])cc1 | 1.7
COc1ccc(-n2ncc(Cl)c(Cl)c2=O)cc1 | 12.2
Cc1c(CN2CCC(CO)(Cc3ccccc3)CC2)c2ccccc2n1C | 28.5
Oc1ccc(Br)cc1/C=N/Nc1ncc(-c2ccccc2)cn1 | -2.0
COCc1cc(C)nc2sc(C(=O)NN)c(-n3cccc3)c12 | -2.8
FC(F)(F)c1ccnc(N2CCN(Cc3cnc(-c4ccccc4)[nH]3)CC2)c1 | 19.5
N#CCOc1ccc(C2=NO[C@@H]3[C@@H]4C[C@@H]([C@H]5C(=O)N(c6ccc7c(c6)OCO7)C(=O)[C@@H]45)[C@H]23)cc1 | 6.9
Cc1[nH]nc(Nc2ccc(O)cc2)c1[N+](=O)[O-] | -10.1
NNC(=S)Nc1cc(S(=O)(=O)N2CCOCC2)ccc1N1CCOCC1 | 12.7
O=C(Nc1ccccc1)c1ccc[nH]1 | 12.9
Cc1cc(C)c2nc(-c3cccnc3)cc(C(=O)NC(C)c3cnn(C)c3C)c2c1 (centres undefined) | 27.7
Cn1cc(-c2cc(C(=O)O)on2)cn1 | 27.7
Cc1onc(-c2ccccc2)c1-c1csc(N/N=C/c2ccccc2)n1 | 14.3
O=C(Nc1ccc(F)cc1)N1CCN(c2ncccn2)CC1 | 1.0
CCOC(=O)Cc1csc(NC(=O)C(CC(C)C)NC(=O)C2CCCCC2)n1 (centres undefined) | 12.0
COc1ccc(NS(=O)(=O)c2ccc(N3CCCC3)c(NC(=S)Nc3cccc(C)c3C)c2)cc1 | 10.0
CC(C)CNS(=O)(=O)c1ccc(S(=O)(=O)N2CCC3(CC2)OCCO3)cc1 | 18.9
CNS(=O)(=O)c1ccc(Cl)nc1 | 11.2
N#Cc1c(-c2ccccc2Cl)noc1/C=C/Nc1ccc(C(=O)O)cc1 | 15.8
O=c1c(C(c2ccccc2)c2c(O)nc3n(c2=O)CCS3)c(O)nc2n1CCS2 | 2.2
C/C(=N/NC(=O)CNC(=O)CCc1ccccc1)c1ccc(Cl)c(Cl)c1 | 13.7
CC(C)(C)C(=O)NCCN1CCN(C(=O)C(C)(C)C)CC1 | 7.8
COc1cccc(C(=O)N2CCN(C(=O)c3ccc(-c4ccccc4)cc3)CC2)c1OC | 16.4
COc1ccc(C(=O)NCC(=O)N=Nc2c(O)n(C)c3ccccc23)cc1OC | 31.7
CC1=[N+](CC(=O)NC(C)(C)C)CCc2ccccc21 | 12.0
CC(C)(C)c1ccc(C(=O)NC(=S)Nn2cnnc2)cc1 | 12.0
Cc1ccc(S(=O)(=O)Nc2ccc3[nH]c(=O)[nH]c3c2)c(C)c1 | 8.5
Cc1ccc(S(=O)(=O)N2CCC(=O)N(C(COCc3cccc(C(F)(F)F)c3)C(C)C)CC2)cc1 (centres undefined) | -3.2
CCC1(C)Cc2ccccc2C(=S)N1 (centres undefined) | 9.5
O=C(Cn1cnc2ccccc2c1=O)N1CCc2ccccc2C1 | 2.5
Cc1ccc(CN2C(=O)C(C)Oc3ccccc32)cc1 (centres undefined) | 26.1
Cc1ccc(N(CC(=O)N2CCOCC2)S(C)(=O)=O)cc1 | 12.1
COC(=O)[C@@]1(Cc2ccc(OC)cc2)[C@H]2c3cc(C(=O)N4CCCC4)n(CCO)c3C[C@H]2CN1C(=O)c1ccccc1 | 7.7
CCOC(=O)CC1(C)OCC(C[N+]2(C)CCCCC2)O1 (centres undefined) | 12.9
CCCCOC(=O)Nc1nc2ccc([N+](=O)[O-])cc2s1 | -1.2
Cc1cc(C)c(C(=O)CSc2nnc(N)s2)cc1C | 23.1
COc1ccc(C(=O)NCC(=O)OCC(=O)Nc2cccc(S(=O)(=O)N3CCCC3)c2)cc1 | 0.7
CCOc1ccccc1OCCOCCOc1ccccc1[N+](=O)[O-] | 8.3
Cc1ccc2cc(C#N)c(SCC(=O)N3CCCc4ccccc43)nc2c1 | 0.3
COc1ccc(/C=C/C(=O)Nc2ccccc2C(F)(F)F)cc1 | 12.0
CN1CCN(C(=O)c2cc(S(=O)(=O)Nc3ccccc3F)c(Cl)cc2Cl)CC1 | 29.9
CCN(CC)CCn1c(NCc2ccc3c(c2)OCO3)nc2ccccc21 | 5.2
N/C(Cc1ccccc1Sc1ccccc1)=N\O | 6.8
O=C(CCc1ccccc1)NNC(=O)c1ccccc1C(=O)O | 8.9
CN(CC(=O)NC(=O)NC(C)(C)C)CC(=O)Nc1ccccc1Cl | 14.5
CC(C)C(C)NC(=O)COc1ncnc2sccc12 (centres undefined) | 7.5
Cc1nc2c(C)cccc2c2c1COC2 | 13.8
Cc1nc(SCCOc2ccc(F)cc2)c2ccccc2n1 | 12.1
COc1ccc2nc(SCCC(=O)O)cc(C)c2c1 | 5.8

# The results go on:
structure | Calb biofilm kill
Cc1ccc(-c2nnc(-c3cccs3)o2)cc1 | 11.6
O=C(c1cc([N+](=O)[O-])ccc1Cl)N1CCN(c2ccccn2)CC1 | 5.2
Cc1[nH]n(-c2ccccc2)c(=O)c1N=Nc1ccccc1C(=O)N1CCOCC1 | 10.9
O=C(NN=C1CCCC1)c1n[nH]c2c1CCCC2 | 4.0
CCc1ccccc1N(C1=NCCCS1)S(=O)(=O)c1ccc(C(C)(C)C)cc1 | 1.5
CC(NC(=O)CCC(=O)N1CCN(S(=O)(=O)c2ccc(Cl)cc2)CC1)c1ccccc1 (centres undefined) | 13.4
C=CCNC(=S)NC(=O)c1ccc(C)c(Br)c1 | 5.6
CC(C)Oc1ccc(Cc2n[nH]c(=S)n2Cc2ccccc2)cc1Cl | 15.1
COc1cccc(NC(=O)CSc2nnc3cc(C)nc(N)n23)c1 | 21.8

# 5 neighbouring entries already listed:
structure | Calb biofilm kill
O=C(NC1CCCCC1)NC12CC3CC(CC(C3)C1)C2 | 11.8
O=C(NNC(=O)c1cccc(O)c1)Nc1ccc([N+](=O)[O-])cc1 | 0.2
C=CCn1c(SCc2nc3scc(-c4ccccc4)c3c(=O)[nH]2)nnc1-c1ccccc1F | 5.8
COc1ccc(/C=N/NC(=O)CN(CCc2ccccc2)S(=O)(=O)c2ccc(NC(C)=O)cc2)cc1OC | 17.7
COC(=O)NCC(c1ccco1)N1CCN(c2ccc(OC)cc2)CC1 (centres undefined) | 7.2

# From PubChem

# Some of the compounds tested, so the mix of outcomes need not match the whole.
